Source: PubChem BioAssay (Broad Institute)
DUX4 txn inh: DUX4-mediated transcription inhibition | 293T-iDUX4 ZSCAN4-Gaussia luciferase reporter, 24 h; stronger effect = lower value | activity change, negative = inhibition, % (concentration not given with the values) | 0.8% of 37,000 active | AID 1224904;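 active = -10% or lower and over 25 points stronger than a control reporter; inconclusive = -10% or lower with a smaller gap; inactive = above -10%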;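 also: 0% = median of neutral control wells and -100% = median of positive control wells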
DUX4 txn inh difference: further read-out of DUX4 txn inh, marked with its call; Gaussia minus Italica difference, %; measured here: selective DUX4 reporter inhibition;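 worked out from the two reporters; negative = selective loss of the DUX4 reporter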
DUX4 txn inh control: second read-out of DUX4 txn inh, no call of its own (marks repeat the call); activity change, negative = inhibition, %; measured here: Italica tet-on control reporter;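 0 = neutral control and -100 = positive control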
An asterisk follows results filed as active; ? = inconclusive; . = not tested or not shown.

SMILES | DUX4 txn inh | DUX4 txn inh difference | DUX4 txn inh control
CO[C@@H]1CN(C)C(=O)c2ccc(NC(=O)c3cccc(F)c3)cc2OC[C@@H](C)N(CC2CC2)C[C@@H]1C | -8 | -6 | -1.0
CCCNC(=O)[C@H]1[C@H](CO)[C@H]2Cn3c(ccc(/C=C/c4ccccc4)c3=O)[C@H]2N1CC | -6 | -1 | -5.1
CC(C)[C@@H]1COCn2nncc2CC[C@H](C)C(=O)N1 | 2 | 6 | -4.0
COc1ccc(C#Cc2ccc3c(c2)O[C@H](CN(C)S(=O)(=O)c2ccccc2F)[C@@H](C)CN([C@H](C)CO)S3(=O)=O)cc1 | -4 | 4 | -8.1
CCN(C[C@@H]1[C@@H](c2ccccc2)[C@H](CO)N1CC1CC1)C(C)=O | 0 | -4 | 4.3
C[C@H](CO)N1C[C@H](C)[C@@H](CN(C)C(=O)Nc2ccc(C(F)(F)F)cc2)Oc2ccc(NC(=O)Cc3cn(C)c4ccccc34)cc2C1=O | -5 | -1 | -3.7
C[C@H](CO)N1C[C@H](C)[C@@H](CN(C)C(=O)CCCN(C)C)OCCCC[C@H](C)Oc2ccc(NC(=O)CCC(F)(F)F)cc2C1=O | 0 | -1 | 0.8
O=C([C@H]1[C@H](CO)[C@H]2Cn3c(cccc3=O)[C@H]2N1Cc1ccccc1Cl)N1CCOCC1 | -6 | -3 | -3.2
CO[C@@H]1CN(C)C(=O)c2ccc(NC(=O)CC(F)(F)F)cc2OC[C@@H](C)N(C(=O)C2CCOCC2)C[C@@H]1C | 2 | 8 | -6.4
COc1ccc(C(=O)N2C[C@@H]3[C@H](c4ccccc42)[C@@H](CO)N3C(=O)Cc2ccccn2)cc1 | 3 | 1 | 1.9

Compound profiles, from the list above. Screens in order: DUX4 txn inh | DUX4 txn inh difference | DUX4 txn inh control
Shown for `CO[C@@H]1CN(C)C(=O)c2ccc(NC(=O)c3cccc(F)c3)cc2OC[C@@H](C)N(CC2CC2)C[C@@H]1C` : -8 | -6 | -1.0
Shown for `C[C@H](CO)N1C[C@H](C)[C@@H](CN(C)C(=O)CCCN(C)C)OCCCC[C@H](C)Oc2ccc(NC(=O)CCC(F)(F)F)cc2C1=O` : 0 | -1 | 0.8
Shown for `CCCNC(=O)[C@H]1[C@H](CO)[C@H]2Cn3c(ccc(/C=C/c4ccccc4)c3=O)[C@H]2N1CC` : -6 | -1 | -5.1

Filtered by structure: those above with nitrogen in an aromatic ring (5)
SMILES | DUX4 txn inh | DUX4 txn inh difference | DUX4 txn inh control
CCCNC(=O)[C@H]1[C@H](CO)[C@H]2Cn3c(ccc(/C=C/c4ccccc4)c3=O)[C@H]2N1CC | -6 | -1 | -5.1
CC(C)[C@@H]1COCn2nncc2CC[C@H](C)C(=O)N1 | 2 | 6 | -4.0
C[C@H](CO)N1C[C@H](C)[C@@H](CN(C)C(=O)Nc2ccc(C(F)(F)F)cc2)Oc2ccc(NC(=O)Cc3cn(C)c4ccccc34)cc2C1=O | -5 | -1 | -3.7
O=C([C@H]1[C@H](CO)[C@H]2Cn3c(cccc3=O)[C@H]2N1Cc1ccccc1Cl)N1CCOCC1 | -6 | -3 | -3.2
COc1ccc(C(=O)N2C[C@@H]3[C@H](c4ccccc42)[C@@H](CO)N3C(=O)Cc2ccccn2)cc1 | 3 | 1 | 1.9

Remaining list, next part.
SMILES | DUX4 txn inh | DUX4 txn inh difference | DUX4 txn inh control
O=C(NC[C@@H]1N[C@@H](CO)[C@H]1c1ccc(C2=CCCCC2)cc1)c1ccc(F)cc1 | 1 | 2 | -1.3
C[C@H](CO)N1C[C@H](C)[C@H](CN(C)C(=O)c2ccccc2F)Oc2ncc(C#C[C@@H](C)O)cc2C1=O | -2 | -4 | 2.7
O=C(NC1CCCC1)N[C@H]1C=C[C@@H](CC(=O)N2CCOCC2)O[C@@H]1CO | 1 | 0 | 1.2
CC=Cc1ccc2n(c1=O)C[C@H]1[C@H](CO)[C@@H](C(=O)NCCc3ccncc3)[C@@H]2N1Cc1ccncc1 (mixture of isomers) | 6 | 4 | 1.6
COc1ccc(CN(C)C[C@H]2OCCCC[C@@H](C)Oc3ccc(NS(C)(=O)=O)cc3C(=O)N([C@@H](C)CO)C[C@@H]2C)cc1 | 2 | 0 | 2.7
CO[C@@H]1CN(C)C(=O)c2ccc(NC(=O)C3CCOCC3)cc2OC[C@@H](C)N(C(=O)c2ccccc2)C[C@@H]1C | -1 | 1 | -2.0
O=C(Nc1ccccc1)N1CC(=O)N2[C@H](C1)[C@@H](c1ccc(-c3ccc(F)cc3)cc1)[C@@H]2CO | 5 | 5 | 0.0
CO[C@@H](CN(C)C(=O)c1ccc2c(c1)OCO2)[C@@H](C)CN([C@@H](C)CO)S(=O)(=O)c1ccccc1 | -1 | -1 | 0.0
C[C@@H]1CN([C@@H](C)CO)C(=O)c2cccc(NC(=O)Nc3ccc(C(F)(F)F)cc3)c2O[C@H]1CN(C)C(=O)Nc1cccc2ccccc12 | 3 | 3 | 0.1
CO[C@@H]1CN(C)C(=O)c2ccc(NC(=O)NC(C)C)cc2OC[C@H](C)N(Cc2ccc(-c3ccccn3)cc2)C[C@H]1C | ? | . | .
CN1c2ccc(C3=CCCCC3)cc2[C@H]2[C@H](CCN2S(=O)(=O)c2ccccc2F)[C@@H]1CO | -9 | -4 | -4.4
O=C(C[C@H]1CC[C@H]2[C@@H](COC[C@@H](O)CN2Cc2ccc(Oc3ccccc3)cc2)O1)Nc1nccs1 | ? | . | .
COc1ccc(-c2ccc3c(c2)[C@H]2[C@H](CCN2S(=O)(=O)c2ccccc2C)[C@H](CO)N3)cc1 | ? | . | .
COc1cccc(C#Cc2ccc3c(c2)[C@H]2[C@H](CCN2S(=O)(=O)c2ccccc2)[C@H](CO)N3)c1 | 12 | -1 | 13
O=C(C[C@@H]1CC[C@H]2[C@@H](COC[C@H](O)CN2Cc2ccc3c(c2)OCO3)O1)N1CCCCC1 | -3 | -8 | 5.2
CS(=O)(=O)N1[C@H](C#N)[C@H](c2ccc(C#CC3CCCCC3)cc2)[C@H]1CO | -1 | -1 | -0.1
C[C@@H]1CN([C@H](C)CO)C(=O)c2ccccc2-c2ccccc2CO[C@@H]1CN(C)S(=O)(=O)c1cccs1 | 1 | 6 | -5.1
COc1ccc2c3c([nH]c2c1)[C@@H](CO)N(C(=O)NC(C)C)CC31CCN(C(=O)c2cccnc2)CC1 | 19 | -9 | 28
CC(=O)NC[C@@H]1[C@H](c2ccc(-c3ccccc3F)cc2)[C@H](CO)N1C(C)=O | -5 | -4 | -1.5
O=C(CN1CCOCC1)N1CC2(C1)[C@H](c1ccccc1)[C@@H](CO)N2Cc1cccc(F)c1 | 1 | -5 | 6.2
C[C@H]1CN([C@@H](C)CO)C(=O)c2ccccc2-c2ccccc2CO[C@H]1CN(C)S(=O)(=O)c1ccc(C(F)(F)F)cc1 | ? | . | .
C[C@@H]1CN([C@H](C)CO)C(=O)CCCn2cc(nn2)CO[C@@H]1CN(C)S(=O)(=O)c1ccc(-n2cccn2)cc1 | 0 | 1 | -0.9
CCCNC(=O)N[C@H]1CC[C@H](CC(=O)NC2CCC2)O[C@@H]1CO | 2 | 2 | 0.6
O=C(C[C@@H]1C[C@H]2c3cc(NC(=O)C4CCC4)ccc3O[C@H]2[C@@H](CO)O1)NCCc1ccccc1 | 9 | 6 | 3.1
CCC(=O)Nc1ccc2c(c1)C(=O)N(C)[C@@H]1CC[C@@H](CC(=O)N[C@H](C)c3ccccc3)O[C@H]1CO2 | 1 | 1 | 0.2
COCCNC(=O)C[C@@H]1CC[C@@H]2[C@H](COC[C@@H](O)CN2C(=O)c2cc(Cl)cc(Cl)c2)O1 | 1 | -4 | 4.8
CCCN(C)C[C@H]1OCc2cnnn2CCCC(=O)N([C@@H](C)CO)C[C@H]1C | -5 | -8 | 3.0
Cc1ccc(S(=O)(=O)NCC[C@H]2CC[C@H](NC(=O)CCN3CCCCC3)[C@@H](CO)O2)cc1 | 2 | 2 | -0.6
CO[C@@H]1CN(C)C(=O)c2cc(NC(C)=O)ccc2OC[C@@H](C)N(C(=O)c2cccnc2)C[C@H]1C | 4 | 1 | 3.2
C[C@H](CO)N1C[C@H](C)[C@H](CN(C)C(=O)Nc2cccc3ccccc23)Oc2ccc(NS(=O)(=O)c3cn(C)cn3)cc2C1=O | 1 | -1 | 2.3
C[C@@H]1CN([C@H](C)CO)C(=O)c2cc(C#CCc3ccccc3)cnc2O[C@H]1CN(C)CC1CCOCC1 | 1 | -1 | 1.6
CCCNC(=O)N1C[C@H]2[C@@H](c3ccccc31)[C@@H](CO)N2C(=O)Cc1ccccn1 | 1 | 1 | -0.6
O=C(C[C@@H]1C[C@@H]2c3cc(NC(=O)C4CCOCC4)ccc3O[C@@H]2[C@@H](CO)O1)NCc1cc(F)ccc1F | 0 | 1 | -0.3
O=C(Nc1cc(F)ccc1F)N1CC(=O)N2[C@H](CO)[C@@H](c3ccc(C#CC4CCCCC4)cc3)[C@@H]2C1 | 0 | -5 | 5.0
O=C(C[C@H]1C[C@@H]2c3cc(NC(=O)C4CCOCC4)ccc3O[C@@H]2[C@@H](CO)O1)NCc1ccc2c(c1)OCO2 | 1 | 3 | -1.8
CC(C)NC(=O)N[C@@H]1C=C[C@H](CC(=O)NCCCN(C)C)O[C@@H]1CO | 2 | 1 | 0.9
CN(C)CC#Cc1ccc([C@H]2[C@H](CO)N3C(=O)CN(C(=O)c4ccccc4)C[C@@H]23)cc1 | 4 | -7 | 12
C/C=C/c1ccc([C@@H]2[C@H](CO)N3C(=O)CN(Cc4ccc(F)cc4)C[C@@H]23)cc1 | -3 | -11 | 8.4
Fc1ccccc1-c1ccc(C2[C@H]3CNC[C@@H]2N3CC2CC2)cc1 (stereo partly drawn) | 11 | 11 | -0.7
CCC(=O)N1CC2(C1)[C@H](c1ccc(-c3ccc(C#N)cc3)cc1)[C@@H](CO)N2C(C)=O | 11 | 12 | -1.4
O=C(N[C@H]1C=C[C@H](CC(=O)N2CCc3ccccc3C2)O[C@H]1CO)C1CCC1 | 4 | 5 | -1.1
CNC[C@@H]1Oc2c(N)cccc2C(=O)N([C@H](C)CO)C[C@H]1C | 0 | 1 | -1.3
CCC(=O)N1CC2(CN(Cc3ccc(Cl)cc3)C2)c2c(n(C)c3cc(OC)ccc23)[C@H]1CO | ? | . | .
CC[C@@H]1C/C=C\CCNC(=O)CCC(=O)N1 | 1 | 4 | -2.2
C[C@@H]1CN([C@H](C)CO)C(=O)c2cc(NC(=O)CCCN(C)C)ccc2O[C@@H](C)CCCCO[C@@H]1CN(C)Cc1ccc(C(F)(F)F)cc1 | -4 | -4 | -0.2
O=C(N[C@H]1CC[C@@H](CCn2cc(-c3ccccc3)nn2)O[C@@H]1CO)c1ccccc1F | 7 | 12 | -5.5
COc1ccc(S(=O)(=O)Nc2cccc3c2O[C@@H](CN(C)C(=O)Nc2cccc4ccccc24)[C@H](C)CN([C@H](C)CO)C3=O)cc1 | 3 | 6 | -2.8
CCCNC(=O)N1C[C@H](C)[C@H](OC)CN(C)C(=O)c2cc(NS(=O)(=O)CC(F)(F)F)ccc2OC[C@H]1C | -3 | -6 | 3.2
C[C@H]1CN([C@@H](C)CO)C(=O)CCCn2nncc2CO[C@@H]1CN(C)Cc1ccc2c(c1)OCO2 | 6 | 6 | 0.8
CC(C)COC(=O)N(C)C[C@@H]1OCc2ccccc2-c2c(n(C)c3ccccc23)C(=O)N([C@H](C)CO)C[C@H]1C | 1 | 2 | -1.2

Following part.
SMILES | DUX4 txn inh | DUX4 txn inh difference | DUX4 txn inh control
C[C@H]1CCCCO[C@@H](CN(C)C(=O)CCCN(C)C)[C@@H](C)CN([C@@H](C)CO)C(=O)c2cc(NC(=O)c3ccccc3)ccc2O1 | 4 | 4 | 0.8
CN(C)C(=O)c1cccc(-c2ccc([C@H]3[C@@H](CO)N(C(=O)C4CCCCC4)[C@H]3C#N)cc2)c1 | 4 | -1 | 4.8
C[C@@H]1CN([C@@H](C)CO)C(=O)c2cccc(NC(=O)Nc3ccc(F)cc3)c2O[C@H]1CN(C)CC1CCCCC1 | -2 | -1 | -1.5
CCNC(=O)C[C@@H]1CC[C@H]2[C@@H](COC[C@H](O)CN2Cc2ccccc2F)O1 | 9 | 9 | -0.3
CN(C)C(=O)c1ccc(-c2ccc([C@@H]3[C@@H](CO)N(C(=O)C4CCOCC4)[C@H]3C#N)cc2)cc1 | 1 | 0 | 1.3
CO[C@H]1CC[C@H]2CCN(C)C(=O)[C@H](C)[C@H](OC)CN(C)C(=O)c3cccc(C#N)c3OC[C@H]1O2 | 1 | -2 | 2.9
CN(C)C(=O)[C@H]1[C@H](CO)[C@H]2Cn3c(ccc(C4=CCCC4)c3=O)[C@H]2N1C(=O)Cc1cccnc1 | 7 | 3 | 4.1
COC(=O)C[C@@H]1CC[C@@H]2[C@H](COc3ccc(NC(=O)Cc4cccs4)cc3C(=O)N2C)O1 | -1 | -8 | 6.8
O=C(CC1CC1)N1CC(=O)N2[C@H](CO)[C@H](c3ccc(-c4cccnc4)cc3)[C@H]2C1 | 8 | -10 | 18
C[C@@H]1CCCCO[C@H](CN(C)C(=O)c2ccncc2)[C@H](C)CN([C@H](C)CO)C(=O)c2cc(N(C)C)ccc2O1 | -6 | -4 | -2.3
CCCC#Cc1ccc([C@H]2[C@@H](CO)N3C(=O)CN(C(=O)c4ccc(F)cc4)C[C@H]23)cc1 | 0 | -6 | 5.6

An excerpt; rates above refer to the full screens.
